# Screening data as filed in PubChem BioAssay.
# MrgX1 allo act – allosterically activates human MrgX1 receptor signaling | B-score at 10 µM | MrgX1-HEK293, Fluo-4 calcium flux, FDSS; active compounds read high | Q96LB2 | 310,000 tested, 0.63% active;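 active = plate-corrected calcium response at least 3 library SD above typical, normal starting fluorescence, not activating the receptor alone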;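 note: compound read alongside a low EC10 to EC30 dose of BAM8-22 agonist; peak minus trough fluorescence over baseline measured at the second addition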
# SKKanGAS inh – blocks kanamycin growth of S. pyogenes SKKanGAS strain. inhibition, % at 7.5 µM. 300,000 tested, 1.3% active. BacTiter-Glo, 6 h;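 active = mean replicate score, as percent of positive control median, at least 50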;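 note: strain carries kanamycin resistance gene driven by streptokinase promoter and grows in 40 µg/ml kanamycin; loss of luminescence reflects streptokinase promoter inhibition or plain growth inhibition; 0% = median of DMSO wells and 100% = positive control at its reference dose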
# Platelet DG rel – modulates dense granule release in human platelets; 300,000 tested, 0.22% active; AID 1663; human platelet-rich plasma, SFLLRN dense granule ATP release, luminescence; inhibition, %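 (compounds screened at 7.5 µM in platelet-rich plasma)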;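 active = mean replicate score, as percent of positive control, at or above 50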
# MrgX1 ag – agonists of human MrgX1 receptor | Q96LB2 | MrgX1-HEK293 cells, Fluo-4 calcium fluorescence, agonist mode; active compounds read high | B-score at 10 µM | 310,000 tested, 0.44% active | AID 588627;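 active = calcium response B-score plate-corrected fluorescence ratio at least 3 library SD, with starting fluorescence B-score inside 5 SD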
#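 Test system: Stable human MrgX1 HEK293 cell line | Schedule: Overnight plating before 1 h dye loading | Read-out basis: Baseline-normalised fluorescence change ratio, B-scored | Detection: Kinetic calcium dye fluorescence, Fluo-4 NW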
# TRPC6 act – mouse TRPC6 channel activation | B-score at 10 µM | 310,000 tested, 0.13% active | Q61143 | HEK293-TRPC6 membrane potential dye fluorescence; active compounds read high | AID 2550;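 active = B-score of the integrated fluorescence ratio above library mean plus 3 SD, and starting fluorescence ratio within library mean plus 5 SD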;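 note: higher score means more depolarization so channel activation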
# Target sequence (Q61143 whole entry, looked up): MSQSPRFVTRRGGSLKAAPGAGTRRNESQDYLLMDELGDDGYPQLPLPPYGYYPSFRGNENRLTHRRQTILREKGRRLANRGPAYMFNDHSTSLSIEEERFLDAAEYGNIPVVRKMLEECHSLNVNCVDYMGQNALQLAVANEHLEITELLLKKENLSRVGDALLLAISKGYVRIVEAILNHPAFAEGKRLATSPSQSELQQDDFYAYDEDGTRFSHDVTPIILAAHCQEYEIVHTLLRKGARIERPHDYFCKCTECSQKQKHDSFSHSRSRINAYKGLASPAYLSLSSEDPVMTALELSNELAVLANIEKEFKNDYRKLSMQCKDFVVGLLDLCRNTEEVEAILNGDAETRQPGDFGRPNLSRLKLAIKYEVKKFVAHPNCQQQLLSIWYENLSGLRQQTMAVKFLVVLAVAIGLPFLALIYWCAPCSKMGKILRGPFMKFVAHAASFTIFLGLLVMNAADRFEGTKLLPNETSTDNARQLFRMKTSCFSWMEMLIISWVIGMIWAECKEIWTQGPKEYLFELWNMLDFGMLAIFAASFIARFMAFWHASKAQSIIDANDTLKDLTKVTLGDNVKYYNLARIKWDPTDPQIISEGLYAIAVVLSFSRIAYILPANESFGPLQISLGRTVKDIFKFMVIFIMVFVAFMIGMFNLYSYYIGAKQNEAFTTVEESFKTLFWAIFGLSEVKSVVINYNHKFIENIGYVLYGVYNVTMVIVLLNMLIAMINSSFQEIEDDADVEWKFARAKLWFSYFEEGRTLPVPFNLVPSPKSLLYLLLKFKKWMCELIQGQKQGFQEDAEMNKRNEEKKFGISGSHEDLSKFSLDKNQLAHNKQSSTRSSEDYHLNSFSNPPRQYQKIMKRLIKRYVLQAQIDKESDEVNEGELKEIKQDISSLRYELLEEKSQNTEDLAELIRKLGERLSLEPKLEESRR
# RGS4 inh – inhibitors of human RGS4 | HEK293 M3R/RGS4 inducible, Fluo-4 calcium flux; active compounds read high; triggered by carbachol at its EC20 | B-score at 10 µM | 310,000 tested, 0.45% active | AID 463165;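 active = B-score, a plate-corrected calcium signal, over three deviations above library mean, with baseline fluorescence within five deviations of library mean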;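 note: RGS4 expression induced by doxycycline in cells with stable M3 receptor; B-score is computed from the integrated fluorescence ratio over baseline after carbachol; higher B-score means a larger calcium signal and so more RGS4 inhibition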
# TRPC6 inh – mouse TRPC6 channel inhibition; B-score at 10 µM; HEK293-TRPC6, membrane potential dye, ACh-evoked depolarization; active compounds read low; Q61143; AID 2553; 310,000 tested, 1.1% active;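 active = B-score under library mean minus 3 SD, initial fluorescence not abnormally high, positive integrated signal ratio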;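 note: B-score derived from integrated fluorescence ratio over the kinetic read; more negative B-score means stronger inhibition of depolarization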
# MrgX1 antag – antagonists of human MrgX1 receptor; Q96LB2; MRGX1-HEK293 calcium flux, Fluo-4, BAM8-22 antagonism; active compounds read low; B-score at 10 µM; 310,000 tested, 1.3% active; AID 588676;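 active = calcium-response B-score plate-corrected more than 3 library SD below zero, starting fluorescence within 5 deviations, no agonist response on first addition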;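 note: peak minus trough fluorescence over baseline after final BAM8-22 challenge near maximal dose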
# TRPC4 block – inhibitors of mouse TRPC4 channel; 300,000 tested, 0.39% active; HEK293 TRPC4beta/mu-opioid, DAMGO-evoked Fluo4 calcium flux; active compounds read low; Q9QUQ5; B-score at 10 µM;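 active = B-score over 3 SD under the library average, no early fluorescence shift, positive overall ratio signal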
#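 Signal: kinetic Fluo4 fluorescence imaging of calcium influx. Material: stable TRPC4beta/mu-opioid receptor HEK293 cells. Probe or stimulus: DAMGO in two steps, submaximal then maximal.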
# RGS4 pot – RGS4 potentiation or activation; HEK293 M3R/inducible RGS4, carbachol calcium flux Fluo4; active compounds read low; B-score at 10 µM; 310,000 tested, 0.92% active; AID 463111;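 active = B-score of the integrated calcium signal more than 4 SD below the library mean, with starting fluorescence not abnormally high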;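 note: negative B-score means reduced calcium response which marks RGS4 activation or potentiation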
#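 Reagent: ECmax carbachol challenge; Test system: M3R-expressing HEK293 line, RGS4 induced by doxycycline; Schedule: overnight RGS4 induction, 30 min dye load 37 °C, 20 min compound RT; Detection: calcium dye Fluo4 fluorescence; Read-out: Agonist-evoked peak-minus-minimum fluorescence over baseline, integrated ratio, B score.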
# Starred values were filed as active, the others as inactive; i = inactive; . = no result given. Not all compounds are listed; rates above refer to the full screens.
1: CC1(C)C/C(=C(/C#N)C(N)=O)CCO1
2: COc1ccc2[nH]c(C)c(C(=O)CN3CC(C)OC(C)C3)c2c1 (stereo not drawn)
3: Cc1cc(=O)[nH]c(SCC(=O)c2ccccc2)c1C#N
4: CCN(CC)CCN1C(=O)C(=O)/C(=C(/O)c2ccc(F)cc2)C1c1cccnc1 (stereo not drawn)
5: COc1cc(OC)c(C(=O)CCCN2CCCC2)c(OC)c1
6: O=C(CCN1CCCC1Cc1ccccc1)c1ccc2c(c1)OCCO2 (stereo not drawn)
7: CCC12CN3CC(CC)(CN(C1)C3c1c(O)ccc3ccccc13)C2=O (stereo not drawn)
8: CC1(C(=O)O)CCC(C(=O)NC2CCCCCC2)C1(C)C (stereo not drawn)
9: CN1CCc2c(sc3c2C(=O)NC(c2ccco2)N3)C1 (stereo not drawn)
10: CNCCC(Oc1ccccc1OC)c1ccccc1 (stereo not drawn)

Screen / compound no. | 1 | 2 | 3 | 4 | 5 | 6 | 7 | 8 | 9 | 10
MrgX1 allo act | i | i | i | i | i | i | . | i | i | i
SKKanGAS inh | -16 | -6 | 0 | 0 | 1 | -5 | -3 | -1 | 14 | -2
Platelet DG rel | -12 | -1 | -1 | -2 | 0 | 8 | 1 | 2 | -3 | 0
MrgX1 ag | i | i | i | i | i | i | . | i | 27* | i
TRPC6 act | i | i | i | i | i | i | i | i | i | i
RGS4 inh | i | i | i | i | i | i | i | i | i | i
TRPC6 inh | i | i | i | i | i | i | i | i | i | i
MrgX1 antag | i | i | i | i | i | i | . | i | i | i
TRPC4 block | i | i | i | i | i | i | i | i | i | i
RGS4 pot | i | i | i | i | i | i | i | i | i | i

# Six structures from above, arranged by count of non-hydrogen atoms, smallest number first:
10: CNCCC(Oc1ccccc1OC)c1ccccc1 (stereo not drawn)
8: CC1(C(=O)O)CCC(C(=O)NC2CCCCCC2)C1(C)C (stereo not drawn)
5: COc1cc(OC)c(C(=O)CCCN2CCCC2)c(OC)c1
2: COc1ccc2[nH]c(C)c(C(=O)CN3CC(C)OC(C)C3)c2c1 (stereo not drawn)
6: O=C(CCN1CCCC1Cc1ccccc1)c1ccc2c(c1)OCCO2 (stereo not drawn)
4: CCN(CC)CCN1C(=O)C(=O)/C(=C(/O)c2ccc(F)cc2)C1c1cccnc1 (stereo not drawn)

Screen / compound no. | 10 | 8 | 5 | 2 | 6 | 4
MrgX1 allo act | i | i | i | i | i | i
SKKanGAS inh | -2 | -1 | 1 | -6 | -5 | 0
Platelet DG rel | 0 | 2 | 0 | -1 | 8 | -2
MrgX1 ag | i | i | i | i | i | i
TRPC6 act | i | i | i | i | i | i
RGS4 inh | i | i | i | i | i | i
TRPC6 inh | i | i | i | i | i | i
MrgX1 antag | i | i | i | i | i | i
TRPC4 block | i | i | i | i | i | i
RGS4 pot | i | i | i | i | i | i

# Continued.
11: Clc1ccc(-n2ncc3c(NCCCn4ccnc4)ncnc32)cc1
12: COc1ccccc1OCC(O)CN1CCN(CC(=O)Nc2c(C)cccc2C)CC1 (stereo not drawn)
13: C=CCn1c(-c2ccc(OC)c(OC)c2)n[nH]c1=S
14: CC(C)(C)n1nnc(CCc2nnn(C(C)(C)C)n2)n1
15: CCN(CC)C(=O)N1CCN(C)CC1
16: Nc1ccc(Cc2ccc(N)c(C(=O)O)c2)cc1C(=O)O
17: COc1cccc(C(=O)OC2CCCN(C)C2)c1 (stereo not drawn)
18: COCCCNC(=O)C(C#N)c1nc2ccccc2nc1N1CCCC1 (stereo not drawn)
19: Cc1cn2c(-c3ccncc3)nnc2s1
20: CC1(C)Cc2c(c(N3CCCCC3)[nH]c(=S)c2C#N)CS1

Screen / compound no. | 11 | 12 | 13 | 14 | 15 | 16 | 17 | 18 | 19 | 20
MrgX1 allo act | i | i | i | i | i | i | i | i | i | .
SKKanGAS inh | 15 | -2 | 1 | -4 | -3 | -12 | 3 | 3 | -5 | -10
Platelet DG rel | -4 | 3 | 1 | -12 | 1 | -2 | 4 | -1 | 1 | -1
MrgX1 ag | i | i | i | i | i | i | i | i | i | .
TRPC6 act | i | i | i | i | i | i | i | i | i | i
RGS4 inh | i | i | i | i | i | i | i | i | i | i
TRPC6 inh | i | i | i | i | i | i | i | i | i | i
MrgX1 antag | i | i | i | i | i | i | i | i | i | .
TRPC4 block | i | i | i | i | i | i | i | i | i | i
RGS4 pot | i | i | i | i | i | i | i | i | i | i

# Exported with each value named: two of the compounds above.
18. COCCCNC(=O)C(C#N)c1nc2ccccc2nc1N1CCCC1 (stereo not drawn)
  MrgX1 allo act: i	SKKanGAS inh: 3	Platelet DG rel: -1	MrgX1 ag: i	TRPC6 act: i	RGS4 inh: i	TRPC6 inh: i	MrgX1 antag: i	TRPC4 block: i	RGS4 pot: i
19. Cc1cn2c(-c3ccncc3)nnc2s1
  MrgX1 allo act: i	SKKanGAS inh: -5	Platelet DG rel: 1	MrgX1 ag: i	TRPC6 act: i	RGS4 inh: i	TRPC6 inh: i	MrgX1 antag: i	TRPC4 block: i	RGS4 pot: i

# (listing goes on)
21: COC(=O)c1ccc(Nc2cc(C)nc(-c3ccccc3O)n2)cc1
22: CCCCCSc1nc(N2CCOCC2)c2c(c1C#N)CC(C)(C)OC2
23: CCCCc1nc(NCC2CCCO2)c(C#N)c2c1COC(C)(C)C2 (stereo not drawn)
24: COC(=O)[C@@H]1CC[C@H](C)[C@@H](c2ccc(C)cc2)N1C(=O)c1ccc(/C=N/O[C@@H](C)CN2CCCCc3nc(C)c(C)cc32)cc1

Screen / compound no. | 21 | 22 | 23 | 24
MrgX1 allo act | i | i | i | i
SKKanGAS inh | -2 | -3 | -3 | 17
Platelet DG rel | 1 | . | 0 | 1
MrgX1 ag | i | i | i | i
TRPC6 act | i | i | i | i
RGS4 inh | i | i | i | i
TRPC6 inh | i | i | i | i
MrgX1 antag | i | i | i | i
TRPC4 block | i | i | i | i
RGS4 pot | i | i | i | i

# Entries by screen from the entries so far.
# Nos. 21–24 in MrgX1 antag, in turn: i, i, i, i

# Taken from above.
# Result for CCCCCSc1nc(N2CCOCC2)c2c(c1C#N)CC(C)(C)OC2 in SKKanGAS inh: -3
# Result for CCCCc1nc(NCC2CCCO2)c(C#N)c2c1COC(C)(C)C2 (stereo not drawn) in Platelet DG rel: 0
# Result for COC(=O)c1ccc(Nc2cc(C)nc(-c3ccccc3O)n2)cc1 in Platelet DG rel: 1
